# VACV mCherry inh: inhibitors of vaccinia virus infection (mCherry reporter signal); Vaccinia virus mCherry reporter infection, fluorescence; about a quarter of the inactives have no number; Potency, µM (top dose mostly 36.5 µM), without a hit: top-dose activity change, negative = inhibition, usual class: inhibitors; actives 0.63% (n = 310,000); AID 720579; active = well fitted inhibition curve with a large enough effect; inconclusive = small, poorly fitted or top-dose-only effect; inactive = no such curve, though single readings can be large or run the other way; tested in A549 cells; also: nearly all actives have a fitted effect of over 35% in size; inactives centre near -10
# VACV Venus inh: inhibitors of vaccinia virus (Venus reporter) | Vaccinia virus Venus reporter expression, fluorescence | Potency, µM (series often up to 36.5 µM), without a hit: at the top dose activity change, negative = inhibition, most hits filed as inhibitors | actives 0.46% (n = 330,000) | AID 720580; active means well fitted inhibition curve with a large enough effect; inconclusive means small, poorly fitted or top-dose-only effect; inactive means no such curve, though single readings can be large or run the other way; tested in A549 cells; also: nearly all actives have a fitted effect of over 30% in size; inactives centre near -10
# * marks the source's active call; other numbers are inactive results; i = inactive; ? = inconclusive; . = no result given; & = joins results of further samples; [ ] = another dose, or the depositor's remark. % is scaled to controls: 0 for no effect and ±100 for the full control effect; potency is read from the fitted curve at half-maximal effect.
compound | VACV mCherry inh | VACV Venus inh
COc1ccc(NC(=O)CSC2=Nc3ccccc3C3=NC(Cc4ccccc4)C(=O)N23)cc1 (centres undefined) | -13.9% | -7.8%
Cn1c(NC(=O)c2cccnc2)nc2ccccc21 | i | -5.3%
O=C1NC[C@@H](CCCCN2C[C@H](Cc3ccc(O)cc3)N(CC3CCCCC3)C(=O)C2=O)N(CCC2CCCCC2)C1=O | i | 9.1%
COc1ccc(Cn2c(C(=O)O)c(CNC3CCCC3)c3ccc(C)cc32)cc1 | 2.4% | -7.4%
CCCCN1C(=O)C(CC(=O)NCCCN(C)C)CC(C(=O)N(C)C)=C1C (centres undefined) | -17.1% | 6.8%
C[C@H]1O[C@H](C2CCCC2)CC2=C1C(=O)OC(C)(C)O2 | 23.1% | -2.6%
CCOC(=O)N1CCN(C(=O)CNC(=O)Cc2ccc(Cl)cc2)CC1 | -22.2% | -10.9%
CCc1ccc(/C=N/NC(=O)c2cc(-c3ccccc3OC)nc3ccccc23)s1 | -17.1% | -8.2%
O=C(Cc1ccc(Cl)cc1)NCC(c1cccs1)S(=O)(=O)c1ccccc1 (centres undefined) | -18.7% | -14.4%
COc1ccc(CN2CCSCC2)c(OC)c1C | 2.0% | 9.1%
Cc1cc(/C(N)=N/OC(=O)Nc2cccc(C(F)(F)F)c2)no1 | i[7.34 µM] | 0.1%[7.34 µM]
Cn1cnnc1-c1cccc(NS(=O)(=O)c2ccc(N3CCCC3=O)cc2)c1 | -24.3% | -8.3%
O=C(OCc1nc2ccccc2s1)c1ccco1 | -7.4% | 1.0%
O=C(Cc1ccccc1)OCCN1CCOCC1 | -0.7% | -9.6%
COc1cc(Cl)c(CN2CCOc3ccc(CN4CCCCC4CO)cc3C2)cc1OC (centres undefined) | -11.6% | -6.1%
Cc1ccccc1C(=O)Nc1cccc(C(=O)OCc2cc(=O)n3nc(C4CC4)sc3n2)c1 | -5.4% | -8.4%
O=C(CN(Cc1ccccc1)S(=O)(=O)c1ccc2c(c1)OCCO2)N/N=C/c1cccc(Br)c1 | -18.9% | -13.8%
COc1cc2nnn(-c3ccncc3)c2cc1OC | -12.1% | -12.0%
OCC1(CCOc2ccccc2)CCN(Cc2ccccc2C(F)(F)F)CC1 | -13.4% | -10.0%
COc1ccc(Nc2nc(N)nc(CSC(=S)N3CCOCC3)n2)cc1 | 12.0% | -25.3%
O=C(CSc1nc(-c2ccccc2)c(-c2ccccc2)[nH]1)NCCN1C(=O)CSC1=O | -26.9% | ?
CCC(=O)N(NC1=NS(=O)(=O)c2ccccc21)S(=O)(=O)c1ccc(C)cc1 | i | -11.4%
CCc1nc2ccccc2n1CCC(C)C | . | -5.5%
Cc1noc(C)c1NC(=O)N(C)C[C@H]1OCCCC[C@@H](C)Oc2ccc(NC(=O)c3ccccc3)cc2C(=O)N([C@H](C)CO)C[C@@H]1C | i | -2.3%
CNCCCc1ccccc1 | -9.4% | -14.1%
CCOc1ccccc1CN(CCc1ccc2c(c1)OCO2)Cc1ccc(CC)cc1 | -11.9% | -0.1%
Cc1ccccc1Cn1c(CN2CCN(C(=O)c3ccco3)CC2)nc2c1c(=O)n(C)c(=O)n2C | -11.4% | -11.5%
C=CCc1cc(C)ccc1OCC(O)CN1CCN(c2ccccc2)CC1 (centres undefined) | -13.6% | -9.0%
COC(=O)c1c(C)[nH]c(C(=O)C(Cc2ccccc2)N(C)C)c1C (centres undefined) | -0.4% | -15.6%
O=C(NCCc1c[nH]c2ccccc12)OC1CC2CC1[C@H]1CCCCN1C2=O (some centres undefined) | 23.8% | 2.5%

# Taken from above.
# `Cc1cc(/C(N)=N/OC(=O)Nc2cccc(C(F)(F)F)c2)no1` in VACV Venus inh is listed with 0.1%[7.34 µM]
# `OCC1(CCOc2ccccc2)CCN(Cc2ccccc2C(F)(F)F)CC1` in VACV mCherry inh is listed with -13.4%
# `O=C(CSc1nc(-c2ccccc2)c(-c2ccccc2)[nH]1)NCCN1C(=O)CSC1=O` in VACV mCherry inh is listed with -26.9%
# `O=C(OCc1nc2ccccc2s1)c1ccco1` in VACV mCherry inh is listed with -7.4%
# `CCOC(=O)N1CCN(C(=O)CNC(=O)Cc2ccc(Cl)cc2)CC1` in VACV mCherry inh is listed with -22.2%

# Returning to the listing; the two compounds before the break are reprinted first.
compound | VACV mCherry inh | VACV Venus inh
COC(=O)c1c(C)[nH]c(C(=O)C(Cc2ccccc2)N(C)C)c1C (centres undefined) | -0.4% | -15.6%
O=C(NCCc1c[nH]c2ccccc12)OC1CC2CC1[C@H]1CCCCN1C2=O (some centres undefined) | 23.8% | 2.5%
O=[N+]([O-])c1ccccc1Nc1ccccc1[N+](=O)[O-] | -8.1% | -13.4%
CCCSc1nsc(SCCC)c1C(N)=O | . | -11.4%
Cc1ccc(-c2nnc3n2N=C(c2ccccc2Br)CS3)cc1 | -23.6% | -16.9%
Cc1cccc(OCc2nc(-c3cccnc3)no2)c1 | 3.9% | 5.0%
CCOc1ccc(N(CC(=O)NC2CCCCC2)C(=O)CCCC(=O)Nc2ccccn2)cc1 | i | -26.5%
Cc1cc(C)n2nc(C(=O)NCCc3ccccc3)nc2n1 | . | -9.5%
Cc1cnc(CNC(=O)c2ccc3oc(Cc4ccc(Cl)cc4)nc3c2)cn1 | i | -7.4%
COc1cc(Nc2ccccn2)cc(C(=O)Nc2cccc(C(F)(F)F)c2)c1 | ? | ?
Cc1ccc(C(=O)Nc2cc3c(cc2N2CCCC2)n(C)c(=O)c(=O)n3C)cc1 | -11.7% | -11.4%
CC(CCc1ccccc1)NC(=O)c1cncc(Br)c1 (centres undefined) | . | -7.1%
C=CCn1ccc2c([N+](=O)[O-])cccc2c1=O | i | -3.1%
OC(CNCc1ccccc1)COCc1ccc(Cl)cc1 (centres undefined) | -10.1% | -1.7%
COc1cc(NS(=O)(=O)c2cnc(N)nc2)cc(OC)c1 | -1.9% | -6.8%
CCn1c(SCC(=O)Nc2nc(C)cs2)nnc1-c1cccnc1 | i | -13.2%
Cc1ccc(NC(=O)Nc2cn(C)c(=O)c3ccccc23)c(Cl)c1 | -4.7% | -6.3%
C[C@H](CO)N1C[C@H](C)[C@H](CN(C)C(=O)c2ccc3ccn(C)c3c2)OCc2cnnn2CCCC1=O | -14.2% | -17.3%
CCOC(=O)NC(Nc1nnc(C)s1)(C(=O)OCC)C(F)(F)F (centres undefined) | i | -5.8%
COc1cc(S(=O)(=O)Nc2ccc(C(=O)NCC(=O)O)cc2)ccc1NC(C)=O | -7.5% | -3.6%
COCCNC(=O)c1cn(Cc2c(F)cccc2Cl)nn1 | . | -3.7%
CCn1ccc2cc(S(=O)(=O)N3CCCN(C(=O)Nc4cccc(SC)c4)CC3)ccc21 | -23.0% | -6.2%
Cc1ccc(C)c(Nc2cc(C(=O)NC3CCCCC3)c3ccccc3n2)c1 | -11.2% | -4.3%
CC(C)(C)c1ccc(C(=O)NCCCNC(=O)c2ccccn2)cc1 | i | -8.9%
Cc1ccccc1S(=O)(=O)NCC1CCCO1 (centres undefined) | -9.7% | -15.3%
NS(=O)(=O)c1ccc(N2CCN(CCOc3ccc(Cl)cc3)CC2)nc1 | ? | -10.0%
COC(=O)CN1C(=S)N(c2ccc(Cl)cc2)C(=O)C1CC(=O)Nc1ccc(Cl)cc1 (centres undefined) | . | ?
COc1ccc(C2=CSC3=NCCN23)cc1Cl | -23.0% | -4.2%
COc1ccc(-n2nnnc2CNC(=O)c2ccc(S(=O)(=O)N3CCOCC3)cc2)cc1 | i | -13.1%
CC(C)(C)C(=O)Nc1ccc2c(c1)OCCOCCOc1cc(NC(=O)C(C)(C)C)ccc1OCCOCCO2 | -0.6% | -3.0%
c1ccc(Oc2ccc3ccccc3n2)cc1 | i | -12.8%
COc1ccc(-n2nnc3c(=O)n(CC(=O)OCc4ccccc4)cnc32)cc1 | -3.4% | 3.2%

# The list goes on:
Compound	VACV mCherry inh	VACV Venus inh
Cc1cc(Cl)ccc1Oc1cccc(C(=O)/C(C#N)=C/N(C)C)c1	-5.7%	-19.9%
COc1cc(NC(=O)CCS(=O)(=O)c2ccc3nc(C)sc3c2)cc(OC)c1OC	i	-13.4%
CCN1C(=O)c2ccccc2Sc2ccc(NC(=O)Cc3ccc(OC)cc3)cc21	-18.4%	-22.0%
Cc1ccc(NC(=O)CSc2nc3ccccc3nc2Cc2ccccc2)c(C)c1	-1.1%	-2.6%
COc1ccc(CN2C[C@@H](CO)O[C@@H](n3cnc4c(NC5CC5)ncnc43)C2)cc1	i	-1.0%
O=C(Cn1cc(C(F)(F)F)ccc1=O)Nc1ccccc1	1.6%	-4.6%
COc1ccc(C2/C=C\CN(CC3CC3)CC(=O)N2Cc2ccc(F)cc2)cc1 (centres undefined)	-4.3%	-11.3%
CCOC(=O)C1C(=O)C(C(=O)OCC)C(c2cccnc2)NC1c1cccnc1 (centres undefined)	-8.8%	-1.9%
COc1ccc(C(=O)NCc2ccccc2OC)cc1	-18.8%	-6.8%
N#CCCN(Cc1cccnc1)C(=S)NC(=O)c1ccc(S(=O)(=O)N2CCCC2)cc1	-20.7%	-9.3%
O=C(Nc1c(-c2ccc(Cl)cc2)[nH][nH]c1=O)c1ccccn1	-2.3%	-7.6%
CCN(CC(=O)NC(=O)NCc1ccccc1)Cc1ccccc1	-22.3%	-16.4%
CCN(CC(=O)Nc1ccc(C(C)=O)cc1)CC(=O)Nc1ccccc1C(F)(F)F	1.7%	3.5%
CCCCn1nnc(NC(=S)NC(=O)c2ccc(OCC)c([N+](=O)[O-])c2)n1	?	1.26µM*
CNc1cnc(-c2ccccc2OC)cn1	-12.6%	-10.7%
COc1ccc(N/N=C/c2c(O)n(-c3ccc(C)c(C)c3)c(=O)[nH]c2=O)cc1	-18.4%	?
CCN(CC)S(=O)(=O)c1cc([N+](=O)[O-])ccc1N=Nc1c(O)n(C)c2ccccc12	-14.4%	-1.3%
O=Cc1c(Cl)cccc1Cl	i	-13.0%
CCOC(=O)C1C2C=CC3(CN(Cc4cccs4)C(=O)C13)O2 (centres undefined)	-10.9%	-6.1%
COc1ccc([C@@H]2Sc3ccccc3N(CCN(C)C)C(=O)[C@@H]2OC(C)=O)cc1	-14.4%	-12.7%&-14.4%
O=C1OC(Oc2ccccc2)(c2ccccc2)c2ccccc21 (centres undefined)	-19.8%	-17.1%
CC(NCc1ccc2c(c1)n(C)c(=O)n2C)c1ccccc1 (centres undefined)	-2.6%	-12.6%
c1ccc(-c2sc3ccccc3c2-c2ccc(OCCN3CCCC3)cc2)cc1	?	14.1µM*
CC(=O)c1cccc(NS(=O)(=O)c2ccc3[nH]c4c(c3c2)CCCCCC4)c1	?	-20.4%
CSCC[C@H](NC(=O)Nc1cccc(C(F)(F)F)c1)C(=O)O	.	-8.4%
Nc1ccc(C(=O)N/N=C/c2cn(Cc3cccc(F)c3)c3ccccc23)cc1	-19.1%	-25.8%
CC(=O)n1cc(/C=C2/N=C(c3ccccc3)OC2=O)c2ccccc21	i	-3.2%
Cc1ccc(CNC(=O)c2ccc3c(c2)c(C)c(C)n3Cc2ccccc2)o1	-2.5%	-9.8%
CC(C)CC(N)c1csc(NC(=O)Nc2ccccc2C(C)C)n1 (centres undefined)	-9.9%	?
CC(C)=NNc1nc(-c2ccc(N3C(=O)CCC3=O)cc2)cs1	-14.8%	6.8%
COc1ccc(C(=O)Nc2cc(C(C)=O)c(/C=C/N(C)C)oc2=O)cc1	i	-2.9%
COc1ccc2[nH]c3c(c2c1)CCN1C(=O)N([C@@H](C)C(=O)NC2CC2)C(=O)[C@]31C	8.8%	22.4%
O=C(OCc1cc(Cl)ccc1OC(F)F)c1cccnc1	-3.1%	2.0%
CN(Cc1cn(C)nc1-c1cccc(Cl)c1)CC1CCCCO1 (centres undefined)	-4.0%	-14.4%
CNC(=S)Nc1ccc2nc(C)oc2c1	-7.1%	-16.5%
Cc1cccc2cc(C#N)c(NCCNS(=O)(=O)c3ccccc3)nc12	-5.9%	-3.4%
O=[N+]([O-])c1cc(S(=O)(=O)Nc2cccc(C(F)(F)F)c2)ccc1-n1nnc2ccccc21	i	-6.7%
COC(=O)NCc1ccc(S(=O)(=O)N2CCOCC2)cc1	-18.3%	3.2%
CCOCCOC(=O)CCSc1n[nH]c(=O)[nH]c1=O	-4.0%	-3.1%
COC(=O)Nc1ccc(S(=O)(=O)Nc2ccc(O)cc2)cc1	-15.5%	-21.5%
COC(=O)COc1ccc(S(=O)(=O)NC2CCCCCC2)cc1	i	-13.3%
CCCCN(C)CCC(=O)Nc1ccc(Cl)cc1	-23.5%	-14.5%
COc1ccc(OC)c2sc(NC(=O)C3CC3)nc12	-29.1%	0.6%
COc1ccc(CCNC(=O)C2CC3Cn4c(nc5ccccc54)C3N2c2ccccc2)cc1 (centres undefined)	2.2%	-18.4%
COc1ccccc1NC(=S)N(CCN1CCCCCC1)Cc1cccs1	-22.4%	-20.8%
Cc1nccn1CCCNC(=O)CC1C(=O)NCCN1Cc1ccccc1C(F)(F)F (centres undefined)	i[7.34 µM]	0.0%[7.34 µM]
CC(=O)c1ccc(NC(=O)C2=CC(c3cccs3)=NS(=O)(=O)N2C)cc1	-11.5%&-2.2%	-17.0%&-2.4%
CCOP(=O)(c1ccccc1)C1(C#N)CCCC1 (centres undefined)	.	0.8%
CCc1nc2ccccc2c(=O)n1-c1ccc2ccccc2c1	-16.1%	-26.3%
COc1cc(/C=N/Nc2ccc(C(F)(F)F)cn2)cc(OC)c1O	?	-16.0%
CCOC(=O)[C@@H]1[C@H]2COc3cc(OC)ccc3[C@H]2N2C(=O)N(c3cccc(F)c3)C(=O)[C@]12C	-1.3%	-10.3%
COc1ccc(OC)c(-c2nnc(SCC(=O)N3CCOCC3)o2)c1	.	-20.8%

# Bioassay records from PubChem BioAssay.
